# TRPML1 agonist: activates the human TRPML1 channel; 410,000 compounds, 0.12% hits; AID 624414; TRPML1-expressing cells, Ca2+ dye fluorescence, FDSS; host cell line not named in the record; reference of the full effect not given here; activation, % (concentration not given with the values); Q9GZU1; in the data active = activation above about 50%; inconclusive = about 30% to 50%; inactive = below about 30%; also: 0% is about no effect; the text of the record puts the active cut at 80%
# Target sequence (Q9GZU1 whole entry, looked up): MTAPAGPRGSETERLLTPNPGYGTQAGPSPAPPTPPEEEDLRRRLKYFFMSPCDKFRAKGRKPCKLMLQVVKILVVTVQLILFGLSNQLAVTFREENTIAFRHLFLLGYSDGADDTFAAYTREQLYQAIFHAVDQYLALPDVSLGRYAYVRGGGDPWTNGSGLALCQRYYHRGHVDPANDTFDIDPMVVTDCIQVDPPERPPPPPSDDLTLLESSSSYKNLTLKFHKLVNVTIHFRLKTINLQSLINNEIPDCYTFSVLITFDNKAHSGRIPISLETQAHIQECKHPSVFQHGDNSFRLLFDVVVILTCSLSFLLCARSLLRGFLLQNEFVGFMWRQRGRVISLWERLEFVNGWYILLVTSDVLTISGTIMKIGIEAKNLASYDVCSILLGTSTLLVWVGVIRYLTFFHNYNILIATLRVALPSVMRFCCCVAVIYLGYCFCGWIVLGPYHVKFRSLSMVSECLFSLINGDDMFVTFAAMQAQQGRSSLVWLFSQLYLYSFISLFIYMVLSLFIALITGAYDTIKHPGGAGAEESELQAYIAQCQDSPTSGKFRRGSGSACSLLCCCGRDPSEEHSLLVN
#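 Tet-induced TRPML1-DL cells, 1,500 per well, cultured overnight, were loaded with a no-wash Ca2+ dye for 45–90 min. Calcium fluorescence was recorded on the FDSS for 110 s after compound addition, before the EC80 agonist (4 uM 54-4) was added.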
# D2 agonist: human D2 receptor agonism in beta-arrestin assay | 360,000 compounds, 0.084% hits | P14416 | DiscoveRx PathHunter D2 beta-arrestin, luminescence, 90 min; 100% = 57 uM dopamine signal | AID 624465 | activation, % (test concentration not listed); in the data active = activation above about 40%; inconclusive = about 15% to 40%; inactive = below about 15%; also: compound concentration not given in the record; the text of the record calls up to 30% inactive
# Target sequence (P14416 whole entry, looked up): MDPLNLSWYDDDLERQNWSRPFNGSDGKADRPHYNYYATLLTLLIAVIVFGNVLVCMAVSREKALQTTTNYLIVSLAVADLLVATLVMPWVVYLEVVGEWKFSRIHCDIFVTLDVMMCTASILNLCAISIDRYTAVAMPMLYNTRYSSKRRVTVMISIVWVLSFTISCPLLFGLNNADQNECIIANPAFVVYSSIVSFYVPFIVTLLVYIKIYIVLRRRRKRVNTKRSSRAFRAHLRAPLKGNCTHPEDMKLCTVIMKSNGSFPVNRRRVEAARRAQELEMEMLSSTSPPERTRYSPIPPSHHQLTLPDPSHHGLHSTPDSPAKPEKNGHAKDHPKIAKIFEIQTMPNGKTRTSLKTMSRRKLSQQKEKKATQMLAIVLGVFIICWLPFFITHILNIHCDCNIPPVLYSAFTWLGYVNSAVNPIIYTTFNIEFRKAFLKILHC
#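 DiscoveRx PathHunter D2 beta-arrestin cells (2,100/well) attached overnight, then compound-stimulated 90 min at 37 C in HBSS/10 mM HEPES/0.1% Tween-20 buffer; beta-galactosidase complementation read by luminescence after 1 h at ambient temperature. Dopamine 57 uM final (EC100) as control.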
# CtBP-E1A inh: CtBP/E1A binding inhibition. AlphaScreen GST-E1A/His-CtBP binding, 1536-well; stronger effect = lower value; control for the full effect not named in the record. activity change, % (concentration not given with the values). 340,000 compounds, 0.49% hits; in the data active means activity change below about -65%; inconclusive means about -30% to -65%; inactive means above about -30%; also: % is scaled to controls: 0 for no effect and ±100 for the full control effect
#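 In 5 uL wells, 23 nL compound meets equimolar GST-E1A and His-CtBP (5X stock 125 nM each) for 2 h, 37 °C. Beads (5X, 50 ug/mL) then 1 h, 37 °C, dark.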
# D2 PAM: human D2 receptor positive allosteric modulation; DiscoveRx D2 beta-arrestin cells, luminescence, 90 min; 100% = 57 uM dopamine signal; potentiation, % (test concentration not listed); 360,000 compounds, 0.23% hits; AID 624464; active = potentiation of 50% or more; inconclusive = 30% to 50%; inactive = 30% or less;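 also: compound concentration not given in the record; tested on top of an EC20 dose of dopamine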
#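 PathHunter beta-arrestin assay in DiscoveRx D2 cells. Compounds were added with an EC20 of dopamine (50 nM final) for 90 min at 37 deg C. Luminescence was read 1 h after detection reagent, with 57 uM dopamine as the EC100 control.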
# PINK1 expr mod: changes PINK1 expression; PINK1 immunofluorescence, high-content cytometry, 24 h; Potency, µM (highest dose often 76.6 µM), for the others: top-dose activation (PINK1 increase), hits mostly activators; 410,000 compounds, 0.2% hits; active = well fitted activation curve with a large enough effect; inconclusive = small, poorly fitted or top-dose-only effect; inactive = flat fitted curve, though single readings scatter; cell line not stated here;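 also: potency is read from the fitted curve at half-maximal effect; % of control where 0% means no effect; nearly all actives have a fitted effect of over 65% in size; a mitochondrial uncoupler was the plate control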
#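 Cells are seeded, rested 12 hours, then given compound at five concentrations or DMSO for 24 hours. After fixation, blocking and antibody staining, PINK1 amount and mitochondrial localization are scored; CCCP serves as control.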
# Six1-Eya2 blk: Six1/Eya2 interaction inhibition; AlphaScreen GST-Six1/His-Eya2 binding, biochemical; stronger effect = lower value; control for the full effect not named in the record; activity change, % (concentration not given with the values); 360,000 compounds, 0.56% hits; in the data active = activity change below about -65%; inconclusive = about -30% to -65%; inactive = above about -30%; also: % is scaled to controls: 0 for no effect and ±100 for the full control effect
#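 Compounds are tested against tagged Six1 and Eya2 proteins bridged by glutathione donor and nickel acceptor beads; after a one-hour incubation at 37 °C without light, AlphaScreen emission is recorded.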
# * hit, by the source's call; ? = inconclusive; · = no result given; [ ] = another dose, or the depositor's remark.
SMILES,TRPML1 agonist,D2 agonist,CtBP-E1A inh,D2 PAM,PINK1 expr mod,Six1-Eya2 blk
COC(=O)c1ccc(OCC(O)CN2C(=O)NC(C)(C)C2=O)cc1 (stereo not given),-0.1,0.5,7,-2,-2.2%,8
CC(=O)Nc1cc(-c2ccc(N3CCN(C)CC3)cc2)cn2c(-c3ccc(F)cc3)cnc12,0.3,7.6,-22,-2,-0.4%,-20
O=C(CN1CSCC1=O)N1CCN(S(=O)(=O)c2ccc(Cl)cc2)CC1,2.6,1.9,9,-1,-1.0%,-1
CCN(CC)c1ccc(C(=O)NN)cc1,0.8,-0.2,-7,-5,-1.1%,1
O=S1(=O)CCC(NC(=S)SCc2ccccc2Br)C1 (stereo not given),2.8,-8.0,13,-13,-2.7%,0
N#CC1=C(N)Oc2cc(N)ccc2C1c1cccc(F)c1 (stereo not given),0.6,6.2,-12,2,0.6%,-1
COc1ccc2nc(NC(=O)C3CCCN(S(=O)(=O)c4cccc5nsnc45)C3)sc2c1 (stereo not given),2.3,-3.0,-18,-9,-2.7%,-18
CCN(C[C@H]1N[C@@](CC)(C(=O)OC)[C@H]2C(=O)N(C)C(=O)[C@@H]12)S(=O)(=O)c1ccc(OC)cc1,-0.3,-1.8,8,-2,2.2%,8
CN(C)C=NC(=O)c1cc(C(=O)c2ccccc2Cl)c[nH]1,0.7,-0.6,17,3,0.0%,15
O=C(CN(c1ccc(F)cc1)S(=O)(=O)c1ccc2c(c1)OCCO2)Nc1cccnc1,-0.4,-1.0,9,-27,1.7%,-8
COCCCN(C(=O)c1cccnc1SC)c1c(N)n(Cc2ccccc2)c(=O)[nH]c1=O,-0.5,-2.7,6,-5,-2.1%,-1
COc1ccc(Br)cc1C(=O)Nc1cccc(C)c1C,0.4,-1.7,-14,-16,2.6%,10
Nc1nc2nn(-c3ccccc3)nc2c(=O)[nH]1,1.7,-3.0,·,3,1.6%,?
CCOC(=O)C1CCCCN1Cc1ccccc1C(F)(F)F (stereo not given),0.5,-0.2,2,-5,-0.2%[38.3 µM],6
COc1ccc(CCn2c(C(C)C)nc3c(c(=O)c4ccccc4n3C)c2=O)cc1,20,-0.2,1,-1,0.6%,-18
C=CCOc1cccc(C2/C(=C(/O)c3ccc4c(c3)CC(C)O4)C(=O)C(=O)N2CCN2CCOCC2)c1 (stereo not given),-0.1,0.1,0,4,1.8%,2
C=CCn1c(SCC(=O)NCC2CCCO2)nnc1-c1ccncc1 (stereo not given),1.0,0.8,-11,-7,0.1%,4
S=c1[nH]nc(-c2ccncc2)n1/N=C/c1cn(-c2ccccc2)nc1-c1ccc(Cl)cc1,0.1,1.2,0,3,19%,18
CC1CCCCN1CCCNc1ccc(C(CC(N)=O)NC(=O)c2ccccc2)cc1[N+](=O)[O-] (stereo not given),-0.4,-1.2,6,-9,1.4%,5
O=C(NCCC1=CCCCC1)NC12CC3CC(CC(C3)C1)C2,-0.2,-5.2,5,-1,1.0%,6
C[C@@H]1CN([C@@H](C)CO)C(=O)c2cc(NC(=O)Nc3ccc4c(c3)OCO4)ccc2O[C@H]1CN(C)S(=O)(=O)c1cn(C)cn1,-0.6,-0.9,0,-14,0.3%,2
CC(NC(=O)C(Cc1ccccc1)N1C(=O)C2C3CCC(C3)C2C1=O)c1ccccc1 (stereo not given),1.7,-0.5,-7,-3,-3.5%,2
Cc1sc2nc(SCC(=O)N3CCN(CCO)CC3)n(-c3ccccc3)c(=O)c2c1C,-0.8,-2.2,11,-18,5.5%[38.3 µM],-3
C[C@@H]1CN([C@H](C)CO)C(=O)CCCn2nncc2CO[C@H]1CN(C)Cc1ccc2cccnc2c1,0.0,-6.4,-24,-1,1.1%,2
CCOc1ccccc1N1CCN(C(=O)c2cccs2)CC1,0.5,-0.5,3,2,0.6%,-2
CC(C)CNS(=O)(=O)c1ccc(NC(=O)Cn2nc(-c3ccc(F)cc3)ccc2=O)cc1,-0.2,-0.2,1,16,?,-1
CC1(NC(=O)N2CCOCC2)CCS(=O)(=O)C1 (stereo not given),0.1,-3.9,4,-4,·,-1
Cc1ccc(C(=O)N/N=C/C2=Cc3ccccc3OC2C)cc1 (stereo not given),0.4,-1.7,13,-13,4.8%,-2
CCOC(=O)N1CCC(NC(=O)C(NS(=O)(=O)c2ccc3c(c2)CCN3C(=O)CC)C(C)C)CC1 (stereo not given),-0.1,6.3,-17,-4,2.2%,0
CCNc1c(NC(C)=O)c(=O)oc2ccccc12,-0.4,-0.4,1,-5,4.5%,8
CCN(CC)C(=O)Cn1cc(S(=O)(=O)CC(=O)NCc2ccc3c(c2)OCO3)c2ccccc21,-0.8,-2.2,3,-5,-0.1%,1
O=C1CC=Nc2ccc([N+](=O)[O-])cc21,-0.2,-3.4,3,-11,0.2%,1
CCCCOc1ccc(CSc2nncn2N)cc1,0.1,-2.6,6,-22,2.7%,-4
O=C(CC1C(=O)NCCN1Cc1cccc(Oc2ccccc2)c1)NCCc1ccncc1 (stereo not given),0.7,2.2,·,2,2.0%,4
C/C(Cl)=C/CSc1nnc2n(N)c(=O)c3ccccc3n12,0.4,-2.8,-10,-12,·,-8
O=C1[C@H]2[C@@H](C(=O)N1c1cc(Cl)cc(Cl)c1)[C@]1(C(=O)Nc3ccccc31)N1CCC[C@@H]21,0.3,-1.1,-6,-7,3.0%[38.3 µM],-6
Cc1c(NS(=O)(=O)c2ccc(NC(=O)CCC(=O)O)cc2)c(=O)n(-c2ccccc2)n1C,0.5,8.0,-20,-7,1.4%,-2
CCC(=O)c1ccc(OC)c(OC)c1OCc1ccccc1,3.1,0.9,-8,-14,1.7%,20
CC(C)c1ccc(CN2CC(C(=O)O)CC2=O)cc1 (stereo not given),0.0,-0.5,-7,-2,-1.5%[38.3 µM],0
CN(C)CCNC(=O)c1onc(CSc2nc3ccccc3[nH]2)c1C(=O)NCCN(C)C,-0.1,-0.2,1,-3,-0.3%,2
O=C(O)C1=NN(c2ccccc2)C(=O)C1,-0.4,0.2,3,1,-1.1%,-4
COc1ccccc1CC(=O)O/N=C(\N)Cc1cccc2ccccc12,1.1,12,16,?,15%,14
COCCN(C(=O)CSc1nnc(C)n1Cc1ccccc1)c1c(N)n(CC(C)C)c(=O)[nH]c1=O,-0.3,-2.4,2,-4,-1.1%,12
COc1ccccc1NC(=O)Nc1cccc(C(=O)O)c1,-0.5,-0.5,5,-3,-0.8%,0
CC(C)=CCC/C(C)=C/CNC(=O)C[C@H]1C[C@H](C(=O)N(C(C)C)C(C)C)[C@@]2(C)c3[nH]c4cc(-c5ccco5)ccc4c3CCN2C1=O,1.2,0.6,-2,0,10%,-17
COc1cccc([C@@H]2CC=C(C(=O)O)[C@H](c3ccccc3)N2S(=O)(=O)c2ccc(C)cc2)c1,-0.9,-2.2,2,-10,1.3%,2
O=C(Nc1nccs1)c1ccc(COc2ccccc2Br)o1,-0.5,-0.2,-14,-2,10%[38.3 µM],-16
Cc1ccc(/C=N/NC(=O)Cn2ccc(C(F)(F)F)n2)o1,-0.7,4.7,0,-2,3.8%,1
NC(=O)Cc1nc(-c2ccc([N+](=O)[O-])cc2)cs1,-0.7,5.8,3,-4,-1.5%,2
C=CCNC(=S)N(C1CCCCC1)C1CCCCC1,-0.8,-3.0,0,-19,2.0%,28
COC(=O)c1cc(S(=O)(=O)Nc2cc(OC)cc(OC)c2)c[nH]1,0.1,2.4,1,-1,2.5%,3
CC(=O)Nc1ccc(-c2csc(Nc3ncccn3)n2)cc1,-0.7,0.8,·,-10,1.0%,2
Cc1nc(NCCc2cnc[nH]2)c2oc3ccccc3c2n1,1.6,0.1,8,-5,·,-10
COc1ccc2c(c1)c1ccc3c(c1n2C)C(=O)C=CC3=O,1.1,13,·,-32,9.3%,-69*
C[C@H](NS(=O)(=O)c1ccc(Cl)cc1)C(=O)OCC(=O)Nc1cc(S(=O)(=O)N2CCOCC2)ccc1Cl,2.4,5.1,-12,-9,-1.0%,4
O=C(NC1CCCC1)c1cc(S(=O)(=O)N2CCCC2)ccc1Cl,1.0,0.5,4,4,1.2%,12
Clc1ccc(CSc2nnc(-c3cccnc3)n2Cc2ccco2)c(Cl)c1,0.1,-3.2,-1,4,-1.7%,-10
Cc1ccc(C(O)P(=O)(OCCC(C)C)c2ccc(N(C)C)cc2)cc1 (stereo not given),2.7,-1.5,-1,-7,-3.1%,-7
Cn1c(=NC(=O)C2=NNC(=O)CC2)sc2ccccc21,0.0,0.3,-5,5,-0.1%,6
COc1ccc(CCn2c(-n3nc(C)cc3C)nc3c2c(=O)[nH]c(=O)n3C)cc1,-0.7,-1.4,-7,-19,?,-18

# Full records from above. Values in the order: TRPML1 agonist, D2 agonist, CtBP-E1A inh, D2 PAM, PINK1 expr mod, Six1-Eya2 blk
# C[C@H](NS(=O)(=O)c1ccc(Cl)cc1)C(=O)OCC(=O)Nc1cc(S(=O)(=O)N2CCOCC2)ccc1Cl reads 2.4, 5.1, -12, -9, -1.0%, 4
# Clc1ccc(CSc2nnc(-c3cccnc3)n2Cc2ccco2)c(Cl)c1 reads 0.1, -3.2, -1, 4, -1.7%, -10
# Cc1ccc(/C=N/NC(=O)Cn2ccc(C(F)(F)F)n2)o1 reads -0.7, 4.7, 0, -2, 3.8%, 1

# Further structures.
SMILES,TRPML1 agonist,D2 agonist,CtBP-E1A inh,D2 PAM,PINK1 expr mod,Six1-Eya2 blk
CCN1C[C@@H]2[C@@H]3C(=O)N(C)C(=O)[C@@H]3[C@](CC)(C1=O)N2C(=O)c1ccc(Cl)cc1,-0.7,-1.4,0,-3,0.6%,0
COC(=O)C(NC(C)=O)(Nc1ccccc1)C(=O)OC,0.1,-3.1,4,0,-0.4%,13
CN(C)N1C(N)=C(C#N)C(c2ccccc2)C2=C1CCCC2=O (stereo not given),1.3,8.8,·,-1,1.2%,-6
CC(C)c1ccc(N(CC(=O)N2CCN(Cc3ccccc3)CC2)S(C)(=O)=O)cc1,2.2,-3.6,0,-5,0.0%,-4
Cc1ccc(-n2c(C)cc(/C=C3/C(=N)N4C(c5ccccc5)=CSC4=NC3=O)c2C)cc1,-0.6,0.6,8,-6,1.0%,7
C#CCOCCOCCOCCNc1nc(N2CCOCC2)nc(N2CCN(C(=O)[C@H](CCC(=O)O)n3cc(C(N)Cc4ccc(O)cc4)nn3)CC2)n1 (stereo not given in full),-0.3,0.8,0,-5,-0.4%,7
N#Cc1cccc(NC(=O)CN2NS(=O)(=O)c3ccccc3C2=O)c1,1.1,-2.2,-1,-10,-2.3%,12
O=C(c1cccc(S(=O)(=O)N2CCCC2)c1)N1CCCc2ccccc21,-0.9,0.0,4,6,0.3%,2
O=C(O)c1ccc(/C=N\Nc2ccccn2)cc1,-0.1,-8.0,1,-7,1.8%,-14
O=C(NC1CC1)C1=C[C@H](c2ccc(Br)cc2)C[C@H](OCc2ccc(CO)cc2)O1,-0.1,-1.5,3,-8,1.6%,-5

# Assay outcomes deposited in PubChem BioAssay by National Center for Advancing Translational Sciences (NCATS).
